Assay outcomes (PubChem BioAssay)
TRPML1 blocker = inhibitors of human TRPML1 channel. Q9GZU1. 390,000 tested, 0.02% active. activity change, negative = inhibition, % (test concentration not listed). TRPML1-inducible cells, Ca2+ dye fluorescence, FDSS; hits give low values; inhibition of EC80 agonist-evoked calcium signal; in the data active means activity change below about -50%; inconclusive means about -30% to -50%; inactive means above about -30%;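 also: stimulus is agonist 54-4 at its EC80 concentration; % is scaled to controls: 0 for no effect and ±100 for the full control effect; compound concentration not given in the record; the text of the record puts the active cut at -80%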
Target sequence (Q9GZU1 whole entry, looked up): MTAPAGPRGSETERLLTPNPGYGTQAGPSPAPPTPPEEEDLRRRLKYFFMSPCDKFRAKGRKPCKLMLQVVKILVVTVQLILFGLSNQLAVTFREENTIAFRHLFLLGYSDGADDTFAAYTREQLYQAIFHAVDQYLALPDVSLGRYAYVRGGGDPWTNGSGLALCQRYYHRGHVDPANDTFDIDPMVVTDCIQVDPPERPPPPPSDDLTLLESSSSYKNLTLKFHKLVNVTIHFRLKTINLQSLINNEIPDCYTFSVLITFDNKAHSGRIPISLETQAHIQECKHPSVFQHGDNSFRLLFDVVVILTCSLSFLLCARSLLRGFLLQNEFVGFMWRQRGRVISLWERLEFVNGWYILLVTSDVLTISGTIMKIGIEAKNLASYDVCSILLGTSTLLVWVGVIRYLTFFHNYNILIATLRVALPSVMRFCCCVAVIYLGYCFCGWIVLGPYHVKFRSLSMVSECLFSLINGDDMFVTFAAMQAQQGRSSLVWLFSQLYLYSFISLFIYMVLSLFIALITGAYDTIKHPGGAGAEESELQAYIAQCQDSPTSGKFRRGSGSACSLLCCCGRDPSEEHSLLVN
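Calcium fluorescence in TRPML1-DL cells induced overnight with Tet: a 110 s read after compound pin addition, then a 110 s antagonist read after challenge with 54-4 at 4 uM final (EC80).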
Six1-Eya2 inh = blocks human Six1 binding to Eya2; Q15475+O00167; AlphaScreen GST-Six1/His-Eya2 binding, biochemical; hits give low values; control for the full effect not named in the record; activity change, % (concentration not given with the values); 360,000 tested, 0.56% active; AID 651725; in the data active = activity change below about -65%; inconclusive = about -30% to -65%; inactive = above about -30%; also: % is scaled to controls: 0 for no effect and ±100 for the full control effect
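Six1/Eya2 binding was read as AlphaScreen signal after compounds were pinned into GST-Six1 plus His-tagged Eya2 (5X stock 250/500 nM) in pH 8.0 Tris/NaCl/TCEP buffer, beads added, then incubated 1 h, 37 C, dark.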
PINK1 modulator = changes PINK1 expression; PINK1 immunofluorescence, high-content cytometry, 24 h; Potency, µM (series often up to 76.6 µM), without a hit: top-dose activation (PINK1 increase), hits mostly activators; 410,000 tested, 0.2% active; AID 624263; active = well fitted activation curve with a large enough effect; inconclusive = small, poorly fitted or top-dose-only effect; inactive = flat fitted curve, though single readings scatter; cell line not stated here;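 also: potency is read from the fitted curve at half-maximal effect; % of control where 0% means no effect; nearly all actives have a fitted effect of over 65% in size; a mitochondrial uncoupler was the plate control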
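Stable cell line, 250 cells/well, 12 h attachment; compounds pinned at 5 concentrations, 24 h; CCCP control. Fixed with nuclear dye, primary antibodies 12 h at 10 degrees C, secondary plus cell stain; laser-scanning cytometer read.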
D2 ag = activates the human D2 dopamine receptor | 360,000 tested, 0.084% active | activation, % (test concentration not listed) | DiscoveRx PathHunter D2 beta-arrestin, luminescence, 90 min; 100% = 57 uM dopamine signal | P14416; in the data active = activation above about 40%; inconclusive = about 15% to 40%; inactive = below about 15%; also: compound concentration not given in the record; the text of the record calls up to 30% inactive
Target sequence (P14416 whole entry, looked up): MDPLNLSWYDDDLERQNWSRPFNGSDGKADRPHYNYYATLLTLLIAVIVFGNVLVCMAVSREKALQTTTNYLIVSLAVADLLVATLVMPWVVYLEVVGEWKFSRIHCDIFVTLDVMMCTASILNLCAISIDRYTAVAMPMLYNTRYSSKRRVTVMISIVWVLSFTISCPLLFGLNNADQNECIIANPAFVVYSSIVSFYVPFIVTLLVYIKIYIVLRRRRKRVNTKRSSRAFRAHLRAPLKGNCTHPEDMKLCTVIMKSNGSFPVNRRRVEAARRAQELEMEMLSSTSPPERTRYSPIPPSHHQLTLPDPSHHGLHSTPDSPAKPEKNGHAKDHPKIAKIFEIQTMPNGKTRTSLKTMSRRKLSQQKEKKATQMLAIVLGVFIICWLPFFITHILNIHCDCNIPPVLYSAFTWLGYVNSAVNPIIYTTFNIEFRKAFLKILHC
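DiscoveRx PathHunter D2 beta-arrestin cells (2,100/well) attached overnight, then compound-stimulated 90 min at 37 C in HBSS/10 mM HEPES/0.1% Tween-20 buffer; beta-galactosidase complementation read by luminescence after 1 h at ambient temperature. Dopamine 57 uM final (EC100) as control.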
CtBP-E1A blk = CtBP/E1A binding inhibition; 340,000 tested, 0.49% active; activity change, % (concentration not given with the values); AlphaScreen GST-E1A/His-CtBP binding, 1536-well; hits give low values; control for the full effect not named in the record; AID 651724; in the data active means activity change below about -65%; inconclusive means about -30% to -65%; inactive means above about -30%; also: % is scaled to controls: 0 for no effect and ±100 for the full control effect
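Protein mix (5X: 125 nM each GST-E1A, His-CtBP) was incubated with pinned compound 2 h at 37 deg C in dark, in 50 mM Tris pH 8.0 buffer with 300 mM NaCl. Glutathione donor and nickel acceptor beads followed; AlphaScreen signal read after 1 h.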
TRPML1 ag = activates the human TRPML1 channel; AID 624414; activation, % (no concentration beside the values); TRPML1-expressing cells, Ca2+ dye fluorescence, FDSS; host cell line not named in the record; reference of the full effect not given here; 410,000 tested, 0.12% active; in the data active = activation above about 50%; inconclusive = about 30% to 50%; inactive = below about 30%; also: 0% is about no effect; the text of the record puts the active cut at 80%
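Kinetic FDSS Ca2+ read in Tet-induced TRPML1-DL cells (ABD Ca8 dye plus quencher, 45-90 min RT loading): baseline, then compound, then 110 s agonist window; EC80 agonist 54-4 at 4uM final added afterwards for a 110 s antagonist window.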
An asterisk follows results filed as active; u = inconclusive; x = not tested or not shown; & = joins results of further samples; [ ] = another dose, or the depositor's remark. Outcome played no part in choosing rows. About 1% of those tested had a hit in this group.

Under each structure – TRPML1 blocker, Six1-Eya2 inh, PINK1 modulator, D2 ag, CtBP-E1A blk, TRPML1 ag
- CCOc1ccccc1/C=C/c1onc(C)c1S(=O)(=O)N1CCC(C(=O)N(CC)CC)CC1
→ 25&3, 9, 2.5%&-1.4%, -1.4, x, 1.1&2.4
- COCCn1c(-c2ccc(NC(C)=O)cc2)nc2c1c(=O)[nH]c(=O)n2CC(C)C
→ -7, 3, -3.4%, -1.5, 0, -0.3
- NNC(=O)C(=O)Nc1ccc(Cl)c(Cl)c1
→ -1, -2, -1.2%, 0.7, 24, 3.5
- CN(C)N1C(N)=C(C#N)C(c2cccc(Cl)c2)C2=C1CCCC2=O (centres undefined)
→ -19, 0, -1.2%, 6.9, 2, 2.6
- O=C(CCC1N=C2c3ccccc3N=C(SCc3ccc(Cl)cc3)N2C1=O)NCc1ccco1 (centres undefined)
→ 9, -10, 2.2%, -0.7, -16, -0.4
- Cc1cccc(-c2nc3c4ccccc4nc(N4CCN(c5cccc(Cl)c5)CC4)n3n2)c1
→ 23, x, 0.9%, x, x, 1.1
- COc1ccc(OC)c(NC(=O)CNC(=O)c2cccs2)c1
→ -9, -2, -7.4%[38.3 µM], 2.0, 2, -0.7
- C=CCn1c(SCC(=O)N2CC(C)OC(C)C2)nnc1-c1ccncc1 (centres undefined)
→ -6, -1, -0.6%, -0.4, -2, 0.6
- CCN(CC)S(=O)(=O)c1ccc(C(=O)NCCSc2c(-c3ccccc3)[nH]c3ccccc23)cc1
→ 15, x, 0.9%, x, x, 0.8
- CCSc1nnc(NC(=O)c2ccc3ccccc3n2)s1
→ -11, -17, 0.3%, -2.9, -10, -0.1
- O=C(Nc1ccc(Cl)cc1)C1CCCN(S(=O)(=O)c2ccc3[nH]c(=O)ccc3c2)C1 (centres undefined)
→ -8, x, 9.7%, x, x, -0.1
- CCOc1ccc(S(=O)(=O)NCCC(=O)OC(C)C(=O)N2CCc3ccccc32)cc1 (centres undefined)
→ 12, 12, -1.8%, -1.2, 4, 0.3
- C=C1[C@@H](O)[C@H](Cc2ccccc2)N(Cc2ccccc2Br)S1(=O)=O
→ -15, -1, -1.7%, -2.4, -5, 1.4
- COc1ccc(OC)c(CCNC(=O)c2ccc(NC3=NC4CS(=O)(=O)CC4S3)cc2)c1 (centres undefined)
→ 26, 2, -1.2%, -2.8, 0, -0.3
- O=C(CC(c1ccccc1)c1ccccc1O)N1CCCC1 (centres undefined)
→ 19, 5, 0.9%, 0.2, 1, 1.3
- COc1ccc(NC(=O)CN(C)C(=O)Cc2ccc3c(c2)OCCO3)cc1
→ -10, 3, -5.5%, 2.1, -23, 1.1
- CCCCN(C)CCCNC(=O)c1cc(=O)[nH]c2ccc(S(=O)(=O)N3CCCCC3)cc12
→ -8, x, 0.1%, x, x, 0.8
- Cc1cccc2nc(-c3ccccc3)nc(N3CCC(O)(c4ccc(Cl)cc4)CC3)c12
→ 7, 7, 22%, -2.5, 25, 0.3
- CC(=O)c1cc(C(=O)Nc2cc(C)cc(C)c2)c2ccccn12
→ 10, x, 12%, x, x, -0.6
- CCOC(=O)c1cnc2cc(-c3ccc(OCC)cc3)nn2c1-c1ccccc1
→ -9, x, -0.4%, x, x, u
- CCOC(=O)c1ccc(Oc2nc(C)nc3c2oc2ccccc23)cc1
→ 7, x, -0.9%, x, x, 2.2
- CC1CN(c2nnc(NC(=O)c3ccccc3)s2)CC(C)O1 (centres undefined)
→ 5, 0, -2.6%, 0.7, x, 0.3
- O=C(Nc1cc(C(F)(F)F)ccc1N1CCOCC1)c1ccncc1
→ 3, 1, -0.4%, 12, x, -0.6
- Cc1cc(C)c(C)c(S(=O)(=O)NCCCN2CCOCC2)c1C
→ 4, 2, 2.0%, -2.9, -12, -0.2
- CS(=O)(=O)N1CCC(C(=O)Nc2ccccc2Cl)CC1
→ 2, -3, 3.3%, -2.6, 14, -0.4
- CC(=O)c1cc(-c2ccc(F)cc2)n(CCC(=O)Nc2nc3c(C)cccc3s2)c1C
→ 1, x, 7.9%, x, x, 0.7
- CCOc1ccccc1N1CC(C(=O)NCCC2=CCCCC2)CC1=O (centres undefined)
→ 3, -1, -0.1%, -1.2, 9, 0.2
- Cc1csc(-c2coc3cc(O)cc(C)c3c2=O)n1
→ 12, -8, 0.8%[38.3 µM], -2.1, -16, 2.1
- COc1cc(NC(=O)C2CCCN(S(=O)(=O)c3ccc4c(c3)oc(=O)n4C)C2)cc(OC)c1 (centres undefined)
→ 3, -25, 1.7%, -7.3, -3, -0.8
- Cc1noc(C)c1COc1ccc(C(=O)OCC(=O)NC23CC4CC(CC(C4)C2)C3)cc1
→ 5, 4, 2.9%, 0.9, 6, 1.0
- Cc1nn(-c2ccccc2)c(Cl)c1C(=O)Nc1nnc(C2CCCCC2)s1
→ 5, -1, 1.2%, -1.5, -2, 19
- COc1ccc(NS(=O)(=O)c2ccc(NC(C)=O)cc2)nn1
→ 40, -4, -0.5%, 0.1, 8, -0.2
- Cc1ccc(OC(C)C(=O)Nc2ncc(Cl)cc2Cl)c([N+](=O)[O-])n1 (centres undefined)
→ 1, -12, 6.8%, 1.6, -3, 0.2
- CCCC(c1nnnn1C(C)(C)CC)N1CCN(C(=O)c2ccco2)CC1 (centres undefined)
→ -17, 2, 2.1%, -6.1, 16, -1.8
- Cc1cc(C)c(C(=O)CN2C(=O)NC3(CCCCC3)C2=O)cc1C
→ -26, 0, 5.7%, 0.8, -2, -0.1
- Cc1nc2ccccc2n1CCCOc1ccccc1
→ 3, 8, 0.4%, -0.5, -1, 0.0
- O=C(COc1ccc(Cl)cc1)Nc1ccc2c(c1)OCO2
→ -1, 10, 1.6%, -4.4, 0, 1.0
- O=c1c([N+](=O)[O-])c(N2CCCCCC2)c2ccccc2n1-c1ccccc1
→ 18, 1, 10%, -0.4, 5, 0.4
- COC(=O)c1ccccc1SCC(=O)Nc1ccc(N2CCOCC2)cc1
→ -11, -16, 0.0%, -1.7, -3, 0.2
- COc1cccc(C(=O)N2CCN(C3CCN(Cc4ccccc4)CC3)CC2)c1OC
→ -3, 5, 0.2%, -2.0, -2, -0.8
- COC(=O)c1ccc(C2/C(=C(/O)c3ccc4c(c3)CC(C)O4)C(=O)C(=O)N2Cc2cccnc2)cc1 (centres undefined)
→ 18, 5, -0.6%, 1.7, 6, 0.4
- O=C(Cc1cccc(NC(=O)C2CCN(C(=O)C3CCC3)CC2)c1)Nc1cccc(C(=O)N2CCCCC2)c1
→ -15, 6, 0.0%, 1.2, 12, 1.1
- O=C(c1ccccc1Oc1ccccc1)N1CCN(c2ccccc2)CC1
→ 38, -4, 2.2%, 5.8, -8, 1.7
- COc1ccc(C(=O)CCC(=O)NC2=NCCS2)cc1
→ -9, 3, -1.1%, -0.9, x, 0.7
- O=C(Nc1ccc(Cc2ccncc2)cc1)C1CCC(N2C(=O)C3C4C=CC(C4)C3C2=O)CC1 (centres undefined)
→ -6, 0, x, 3.7, 4, -0.1
- O=C(NCc1ccccc1)C1CCCN(c2cnccn2)C1 (centres undefined)
→ -7, 9, 0.9%, -2.2, x, -0.3
- CCCCn1c(N)c(N(CCOC)C(=O)CSc2nnc(-c3ccc(C(C)(C)C)cc3)n2N)c(=O)[nH]c1=O
→ 5, -3, -1.5%, -0.6, 1, -0.5
- COC(=O)c1ccc(CN2CCC(Oc3ccc(C(=O)N4CCCCC4)cc3)CC2)cc1
→ 4, -12, 0.0%, 0.0, -3, -0.4
- COc1cccc(Nc2nc(C(N)CC(C)C)cs2)n1 (centres undefined)
→ x, -16, -1.3%, -5.1, -29, -0.2
- CC(=O)Nc1ccc(NS(=O)(=O)c2c(C(=O)N3CCCCCC3)c(C)n(C)c2C)cc1
→ -18, x, -0.4%, x, x, -0.3

Next entries:
Under each structure – TRPML1 blocker, Six1-Eya2 inh, PINK1 modulator, D2 ag, CtBP-E1A blk, TRPML1 ag
- CCOc1ccccc1/C=N/NC(=O)C[n+]1ccccc1
→ -5, 2, 2.1%, -4.9, x, -0.8
- CCN(CC)c1ncnc2scc(C3COc4ccccc4O3)c12 (centres undefined)
→ -3, 16, 0.9%, -0.7, 6, 0.6
- CCOC(=O)[C@]12Cc3c(cc(OC)c(OC)c3OC)[C@H]1N(C1CCCCC1)C(=O)c1cc(OC)ccc12
→ x, -7, -1.1%, x, -1, -0.8
- COc1ccc(Cl)cc1NC(=O)Cc1c(F)cccc1Cl
→ 11, 18, 15%, -5.1, 0, 2.6
- CCCn1nnc(NC(=O)/C=C/c2ccccc2)n1
→ 2, -3, 1.5%, -3.1, 3, 0.6
- O=C(NCCN1CCN(c2ccccc2Cl)CC1)Nc1ccccc1
→ 10, 0, -1.1%, 6.4, -2, -0.1
- Nc1nc(Nc2ccccc2)nc(C(F)(F)F)n1
→ 10, -9, -0.8%, -1.3, -2, -0.1
- CC(C)CCNC(=O)C1CCN(c2nc3ccc(Cl)cc3[nH]2)CC1
→ -20, x, -0.1%, x, x, 1.2
- O=C(CCn1c(=O)[nH]c2ccsc2c1=O)N1CCN(c2ccc([N+](=O)[O-])cc2)CC1
→ 12, -10, -2.7%, -1.6, -14, 2.6
- CC1(c2ccc(OCC#N)cc2)C=C(c2ccc(OCC#N)cc2)n2nc(C(F)(F)F)nc2N1 (centres undefined)
→ 10, 0, -4.5%, 2.6, -6, 1.2
- CCN1CCCC(NC(=O)c2scc3c2CCCC3)C1 (centres undefined)
→ 8, 0, 2.2%, -4.1, 3, -0.6
- Cc1cccc(C)c1NC(=O)c1cc(-c2ccccn2)nc2ccccc12
→ -11, -6, 7.2%, -0.5, -11, 0.1
- CCOc1cc(N2CCOCC2)c(OCC)cc1NC(=O)COC(=O)COc1ccc(C#N)cc1
→ -5, -12, 0.3%, 2.1, 7, -0.6
- O=C(c1cccc([N+](=O)[O-])c1)N1CCN(c2n[nH]c(=O)[nH]c2=O)CC1
→ -3, -2, 3.3%, -1.1, 11, -0.3
- COc1ccc(CC(=O)OCC(=O)Nc2ccc3c(c2)OCCO3)cc1OC
→ 1, -3, 7.5%, -2.7, 0, -0.5
- COC(=O)N/N=C/c1cc(Cl)cc(Cl)c1OCc1ccc(F)cc1
→ 24, 8, 7.8%, 5.4, -16, 2.7
- CCOc1ccc(C(=O)NCc2nc(-c3ccc(Cl)cc3)no2)cc1OCC
→ -9, x, 2.3%, x, x, -0.5
- CC(=NNC(=S)N1CCN(c2ccccn2)CC1)c1ccccn1
→ -17, u, -2.7%, -1.1, u, -0.2
- COc1cccc(CC2(CO)CCCN(Cc3cn(C)c4ccccc34)C2)c1 (centres undefined)
→ 8, -9, 3.9%, -9.0, x, 0.1
- O=C(C1CCCCC1)N1CCC2CC1c1cc(-c3ccc4c(c3)OCO4)ccc12 (centres undefined)
→ x, -15, u, -3.2, -10, 0.1
- O=C1CCC(C(=O)N2CCC(CO)(Cc3ccc(Cl)cc3)CC2)=NN1
→ -17, 3, 2.4%, 0.3, 3, 0.3
- CC(C)CNc1ncnc2c1ncn2[C@H]1CN(C2CCCC2)C[C@@H](CO)O1
→ x, 39, 1.8%, 1.3, -16, -0.2
- CN(C)S(=O)(=O)c1ccc(N2CCCC2)c(C(=O)Nc2ccc(F)cc2F)c1
→ 3, -5, -1.2%, -1.1, -19, -0.8
